A647 fluor: compound fluoresces in the A647 spectral region; AID 592; 59,000 tested, under 10 active; max dye-equivalent concentration, M; Compound fluorescence, A647 channel (570/671 nm), Tris buffer; active means above 1 µM dye equivalent; inconclusive means 0.1 to 1 µM; inactive means 0.1 µM or less;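 further: values scaled relative to a standard on each plate; highest value over a series up to 38 µM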
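Each compound's intrinsic fluorescence at 570 nm excitation and 671 nm emission is measured across its concentration series in 100 mM Tris, pH 8.0, after 15 min at room temperature, and reported relative to an A647 curve.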
AID923: qHTS Assay for Allosteric/Competitive Inhibitors of Caspase-1: Spectroscopic Profiling in AFC Spectral Region | Potency, µM (doses to about 57.5 µM), without a hit: at the highest dose fluorescence increase, usual class: activators | actives 1.1% (n = 75,000) | compound fluorescence, AFC spectral region (405/520 nm); almost no hit is shown here | AID 923, 2007; active means well fitted activation curve with a large enough effect; inconclusive means small, poorly fitted or top-dose-only effect;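 further: potency means the concentration at half of the fitted maximal effect; 0% is about no effect; scaled to a free AFC standard on each plate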
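Compound autofluorescence profiled at 405 nm ex/520 nm em during kinetic caspase 1 run (50 nM enzyme, 5 uM Ac-WEHD-AFC, HEPES pH 7.5, 10 mM DTT). Titration up to 57 uM; baseline from regression intercept, normalized to AFC standard curve.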
TSHR agonist: TSH receptor (human) agonism; Potency, µM (top dose mostly 57.1 µM), inactives show at the highest dose activation, actives largely listed as activators; HEK293-CNG-TSHR cells (CNG channel as cAMP sensor), membrane potential dye, cAMP; actives 0.48% (n = 73,000); P16473; AID 926; active = well fitted activation curve of enough size with the parental cells flat; inconclusive = any curve in the parental cells; inactive = parental cells flat and receptor cells flat or falling; further: potency means the concentration at half of the fitted maximal effect; % of control where 0% means no effect; weak receptor curves with flat parental cells got no call and are not listed
Target sequence (P16473 whole entry, looked up): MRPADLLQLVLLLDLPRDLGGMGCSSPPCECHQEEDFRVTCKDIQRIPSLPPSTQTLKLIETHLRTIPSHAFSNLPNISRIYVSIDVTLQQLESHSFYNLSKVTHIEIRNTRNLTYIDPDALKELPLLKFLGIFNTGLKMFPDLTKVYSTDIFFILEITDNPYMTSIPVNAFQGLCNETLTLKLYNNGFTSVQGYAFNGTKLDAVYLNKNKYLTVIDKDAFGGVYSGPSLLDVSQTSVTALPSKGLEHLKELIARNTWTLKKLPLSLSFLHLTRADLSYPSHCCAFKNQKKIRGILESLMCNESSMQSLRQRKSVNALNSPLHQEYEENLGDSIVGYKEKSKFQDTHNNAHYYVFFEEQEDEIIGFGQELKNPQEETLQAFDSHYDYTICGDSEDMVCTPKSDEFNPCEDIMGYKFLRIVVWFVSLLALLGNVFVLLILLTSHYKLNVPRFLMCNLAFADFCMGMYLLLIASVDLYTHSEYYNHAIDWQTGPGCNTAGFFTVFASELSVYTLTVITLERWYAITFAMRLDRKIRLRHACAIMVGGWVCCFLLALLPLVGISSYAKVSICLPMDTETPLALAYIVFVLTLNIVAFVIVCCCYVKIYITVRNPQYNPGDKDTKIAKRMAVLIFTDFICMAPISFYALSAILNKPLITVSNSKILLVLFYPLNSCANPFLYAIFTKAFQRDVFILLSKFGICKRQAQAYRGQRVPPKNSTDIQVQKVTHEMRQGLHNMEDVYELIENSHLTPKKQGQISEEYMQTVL
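cAMP rise detected as CNG-channel membrane depolarization by fluorescent dye (emission 590 nm), 30 min after compound, following 60 min dye loading containing 100 uM RO 20-1724 at room temperature. Cells: TSHR/CNG HEK 293, with parental CNG HEK 293 as control.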
Resorufin autofl: resorufin region autofluorescence; actives 0.04% (n = 59,000); max dye-equivalent concentration, M; Compound fluorescence, resorufin region 547/598 nm, buffer; hits give high values; active = above 10 nM dye equivalent; inconclusive = 1 to 10 nM; inactive = 1 nM or less; a few of its hits are not listed in these tables; further: highest value over a series up to 38 µM
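Dye-equivalent concentration values derive from comparing each well's 547/598 nm fluorescence against resorufin standards included on every plate. Incubation was 15 min at room temperature in 100 mM Tris, pH 8.0.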
A488 fluor: compound fluoresces in the A488 spectral region | compound autofluorescence, A488 spectral region, dye equivalency; hits give high values | max dye equivalency, M | actives 0.1% (n = 59,000) | AID 591; active = above 10 nM dye equivalent; inconclusive = 1 to 10 nM; inactive = 1 nM or less; about half of its hits are not listed in these tables;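 further: highest value over a series up to 38 µM; compound alone in buffer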
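Spectroscopic profiling in the A488 region: compounds in pH 8.0 Tris (100 mM), 15 min RT, CCD imaging with 480 nm excitation and 540 nm emission; responses normalized against A488 dye standards.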
An asterisk follows results filed as active; i = inactive; u = inconclusive; x = not tested or not shown; [ ] = another dose, or the depositor's remark.

SMILES	A647 fluor	AID923	TSHR agonist	Resorufin autofl	A488 fluor
Cc1ccc(-n2c(Cc3cccn3C)nnc2SCC(=O)N2CCN(c3ccccc3)CC2)cc1	1e-09	0.9%	5.8%	i	i
CCOc1ccccc1N	x	-0.8%	-1.5%	x	x
c1ccc(-n2ncc(-c3nn[nH]n3)n2)cc1	x	-0.3%	16.3%	x	x
Cc1nc(SCC(=O)Nc2ccccc2C(F)(F)F)c2c(=O)n(C)c(=O)n(C)c2n1	1e-09	-1.5%	5.5%	i	i
O=C(Cn1cnc2c(cnn2-c2ccccc2)c1=O)OCc1ccccc1	1e-09	0.3%	u	i	i
CCOC(=O)CSC1=C(C#N)C(c2ccccc2)C(C(C)=O)=C(C)N1 (stereo not drawn)	1e-09	4.0%	-7.0%	i	i
CCn1c(CNc2ccccc2Cl)nnc1SCC(=O)OC1CCCCC1	1e-09	-1.0%	u	i	i
CCN1C(C)=C(C(=O)OC)C(c2ccccc2)N2C(=O)[C@](O)(C(=O)OC)C(c3ccccc3)C(C(C)=O)=C12 (stereo partly drawn)	x	-0.7%[11.5 µM]	3.0%[11.4 µM]	x	x
c1nnc(NCNc2nncs2)s1	1e-09	6.1%[11.5 µM]	u	i	i
C=CCN=C(NC#N)SCCc1ccccc1	1e-09	x	x	i	i
O=C(C1CCCN(Cc2cccs2)C1)N1CCCCCC1 (stereo not drawn)	1.4e-09	2.1%	16.6%	i	i
COCCCN1C(=O)c2ccc(C(=O)Nc3ccc(OC)cc3OC)cc2C1=O	4.03e-08	-0.8%	-11.6%	i	i
N/C(=N\c1nc2ccccc2o1)NC(=O)C(Cc1ccccc1)N1C(=O)c2ccccc2C1=O (stereo not drawn)	x	0.0%	-1.5%	x	x
O=C(NCc1cccnc1)C1c2ccccc2C(=O)N1C1CCCCCC1 (stereo not drawn)	1e-09	0.7%	1.7%	i	i
Cc1ccc(S(=O)(=O)N[C@H](C(=O)N2CCC(C(=O)N3CCC[C@H]3C(=O)O)CC2)C(C)C)cc1	1e-09	0.5%	3.1%	i	i
CC(C)(C)S(=O)(=O)c1ccccc1C(=O)O	1e-09	1.6%	-7.4%	i	i
COc1ccccc1NC(=O)C(C)N1CCN(C/C=C/c2ccccc2)CC1 (stereo not drawn)	8.8e-09	-0.8%	u	i	i
Cc1cc(C)n(CC2CC(=O)N(c3ccc(C)c(Cl)c3)C2=O)n1 (stereo not drawn)	1.35e-08	x	x	i	i
Cn1c(=O)c2c(nc(CN3CCC(C(N)=O)CC3)n2Cc2ccccc2Cl)n(C)c1=O	4.43e-08	2.0%	-21.0%	i	i
Cc1nc(NCC2CCCO2)c2oc3ccccc3c2n1 (stereo not drawn)	2.37e-08	1.1%	7.3%	i	i
O=C(NCc1ccc(F)cc1)C1CCC(=O)N1CCc1ccccc1 (stereo not drawn)	x	-0.3%	u	x	x
CCOc1ccc2nc(NC(=O)CSC3=NCCS3)sc2c1	1e-09	-0.4%	u	i	i
CCOC(=O)C1C(=O)NC(SC)=C(C#N)C1c1ccccc1F (stereo not drawn)	x	-1.2%	u	x	x
COc1ccccc1CN1CC(C(=O)NCc2cccnc2)CC1=O (stereo not drawn)	5.9e-09	-0.4%	-3.0%	i	i
CCN(CC)CCCCn1c(-c2ccccc2)nc2c(N3CCOCC3)nc(C)nc21	x	0.3%	17.6%	x	x
O=C(c1ccccc1)c1cc2ccccc2o1	5.38e-08	1.3%	x	i	i
Cc1cc(N2C(=O)C(=O)/C(=C(/O)c3ccc(Cl)cc3)C2c2cccc(Br)c2)no1 (stereo not drawn)	6.5e-09	-1.9%	u	i	i
O=C(O)C[C@H](Cc1ccccc1Cl)C(=O)O	2e-09	4.9%[11.5 µM]	2.2%[11.4 µM]	i	i
Cc1ccc(Cl)cc1N1CCN(Cc2nc3c(c(=O)[nH]c(=O)n3C)n2Cc2ccccc2F)CC1	x	-1.2%	-3.2%	x	x
CCOc1ccc(OCC)c(NC(=O)C2COc3ccccc3O2)c1 (stereo not drawn)	3.22e-08	1.5%	u	i	i

Some of the entries above, set out differently:
smiles,A647 fluor,AID923,TSHR agonist,Resorufin autofl,A488 fluor
O=C(Cn1cnc2c(cnn2-c2ccccc2)c1=O)OCc1ccccc1,1e-09,0.3%,u,i,i
CCOc1ccccc1N,x,-0.8%,-1.5%,x,x
O=C(c1ccccc1)c1cc2ccccc2o1,5.38e-08,1.3%,x,i,i
Cc1nc(NCC2CCCO2)c2oc3ccccc3c2n1 (stereo not drawn),2.37e-08,1.1%,7.3%,i,i
CCN1C(C)=C(C(=O)OC)C(c2ccccc2)N2C(=O)[C@](O)(C(=O)OC)C(c3ccccc3)C(C(C)=O)=C12 (stereo partly drawn),x,-0.7%[11.5 µM],3.0%[11.4 µM],x,x

Later entries
SMILES	A647 fluor	AID923	TSHR agonist	Resorufin autofl	A488 fluor
CN(C)/C=C1\C=C(c2ccccc2)OC1=O	1.9e-08	0.1%	7.4%	i	i
Cc1nc2ccccc2c2oc(C(=O)N3CCN(C4CCCCC4)CC3)cc12	x	-0.5%	4.0%	x	x
COc1cccc2cc(C(C)N(CCCN3CCOCC3)C(=O)Nc3ccccc3)oc12 (stereo not drawn)	1e-09	-1.7%	14.0%	i	i
CCN(CC)S(=O)(=O)N1CCC(C(=O)NC2CCCC2)CC1	1e-09	-1.0%	2.1%	i	i
COc1ccc(CNC(=O)Nc2ccc(OC)cc2)cc1	3.95e-08	-0.6%	5.6%	i	i
COCCNC(=O)c1ccccc1-c1ccccc1C(=O)O	1e-09	1.2%	14.0%	i	i
Cc1noc(C)c1-c1nc(NC2CC2)c2ccccc2n1	1e-09	3.7%	u	i	i
Cc1cc(Nc2ccc(C(C)C)cc2)n2ncnc2n1	x	-1.5%	13.3%	x	x
CCC(Sc1nccn1C)C(=O)Nc1cccc2ccccc12 (stereo not drawn)	x	-5.9%	-0.8%[11.4 µM]	x	x
CC(C)N1CCc2c(sc(NC(=O)c3ccc(S(=O)(=O)N4CCOCC4)cc3)c2C(N)=O)C1	x	9.1%	22.1%[11.4 µM]	x	x
O=C(O)CCSSCCC(=O)O	x	1.2%	u	x	x
CC(=O)N1C(=O)C(=C2C=C(C)OC(C)=C2)c2ccccc21	1.88e-08	13.4%	-5.2%	i	1.28e-08M*
CCCc1[nH]nc2c1C(/C(C)=C/c1ccccc1)C(C#N)=C(N)O2 (stereo not drawn)	2.2e-09	1.0%	15.1%	i	i
CCN1CCC2(CC1)C(C#N)=C(N)Oc1c2sc2nc(C)cc(C)c12	3.58e-08	20.1%	18.7%	i	i
COCCN1C(=O)c2oc3ccccc3c(=O)c2C1c1cccc(O)c1 (stereo not drawn)	x	2.3%	2.4%	x	x
COc1ncc2nc(CCc3ccccc3)c(=O)n(C3CC3)c2n1	2.38e-08	1.9%	16.6%	i	i
COc1ccc(C(O)C(CC(=O)NCCCOC(C)C)C(=O)NCCCOC(C)C)cc1OC (stereo not drawn)	4.59e-08	0.7%	-6.2%	i	i
O=S(=O)(O)c1ccc(-c2nnc(-c3ccccn3)nc2-c2ccc(S(=O)(=O)O)o2)o1	1.87e-08	0.3%[11.5 µM]	5.6%[11.4 µM]	i	i
CN1CCN(CCCNC(=O)c2ccc3c(c2)N(Cc2ccccc2)CCS3)CC1	x	12.7%	-3.6%	x	x
O=C(Cn1c(C(=O)NCCCN2CCOCC2)cc2sccc21)c1ccccc1	1.32e-08	0.1%	u	i	i
CCCn1c(=C(C#N)C#N)s/c(=C2\C=Cc3ccccc3N2CC)c1=O	9.4e-09	-2.4%	u	u	i
O=C1Nc2ccccc2C(O)(C(=O)NCc2ccc3c(c2)OCO3)N1c1ccccc1 (stereo not drawn)	1e-09	0.2%	4.6%	i	i
c1ccc(-n2ncc3c2ncn2c(C4CCCCC4)nnc32)cc1	1.87e-08	-1.4%	6.2%	i	i
CC1(C)CC(=O)C(C=NCCCN2CCOCC2)=C(O)C1	x	3.9%	-7.5%	x	x
CCN1CCN(C(c2cc3cc4c(cc3[nH]c2=O)OCO4)c2nnnn2C(C)(C)CC)CC1 (stereo not drawn)	1.87e-08	20.7%	x	i	i
O=C(Nc1ccccc1)OCCNC(=O)c1ccccc1	2.3e-09	-0.6%	4.6%	i	i
Cc1cnc(NC(=O)COc2ccccc2)s1	2.19e-08	0.3%	-4.6%	i	i
CC(=O)c1ccc(OC2C=CC(C#Cc3ccc(Br)cc3)OC2CO)cc1 (stereo not drawn)	x	-1.2%[11.5 µM]	5.3%[11.4 µM]	x	x
COC(=O)C1=C(C)NC(=O)NC1c1cc(Cl)ccc1OC (stereo not drawn)	7.4e-09	0.1%	16.9%	i	i
CCOC(=O)c1c(NC(=O)Cc2cccs2)sc(C)c1C	x	0.9%	u	x	x
CO/C([O-])=N/c1c[n+](-c2ccc(C)cc2)no1	1e-09	-0.1%	-2.0%	i	i
COc1cccc(OCC(O)CN2CCN(CCO)CC2)c1 (stereo not drawn)	1.19e-08	-0.5%	-7.6%[11.4 µM]	i	i
COC(=O)C1=C(C)NC(C)=C(C(=O)OC)C1c1ccc(N(C)C)cc1	1e-09	-1.1%	20µM*	i	i
CCC(c1nnnn1Cc1ccco1)N(CCc1ccccc1)Cc1cc2ccc(OC)cc2[nH]c1=O (stereo not drawn)	1e-09	1.4%	u	i	i
COC(=O)CSc1nnc(CSc2nc(C)cc(C)n2)n1Cc1ccco1	3.2e-09	-0.9%	10.5%	i	i
O=c1c2[nH]c3ccccc3c2ncn1CCC1=CCCCC1	8.1e-09	-0.7%	1.9%	i	i
CCC(C)[C@H](NC(=O)NCc1cccs1)C(=O)O (stereo partly drawn)	3.02e-08	0.7%	9.4%	i	i
CCCCSC(=O)Nc1ccccc1	x	-0.3%	-2.1%	x	x
Cc1cc(S(=O)(=O)N(Cc2ccc(F)cc2)CC2CCCO2)ccc1-n1cnnn1 (stereo not drawn)	1e-09	-0.5%	3.2%	i	i
O=C(OCC(=O)N1CCCC1)c1ccco1	1e-09	-0.6%	-3.2%	i	i
Cc1nc(=O)c(-c2ccccc2)c(C)n1CC1CCCO1 (stereo not drawn)	x	-1.5%	2.0%[11.4 µM]	x	x
CS(=O)(=O)N1CCCC(C(=O)NCCCN2CCOCC2)C1 (stereo not drawn)	1e-09	-0.5%	3.7%	i	i
Cc1cccc(C)c1NC(=O)CSCC(=O)c1ccc(O)c(O)c1	3.67e-08	x	x	i	i
COc1cccc(-c2ccc3ncnc(NC4CCNCC4)c3c2)c1	4.6e-09	-0.1%	-1.7%	i	i
CCN(CC)CCCC(C)NC(=O)c1ccc(-n2c(=O)c(=O)[nH]c3ccccc32)cc1 (stereo not drawn)	x	-1.2%	5.5%	x	x
COCC(=O)N1CCC2(CCCN(c3cccc(-c4ccccc4)c3)C2)CC1	1.16e-08	-0.1%	18.1%	i	i
COC(=O)CNC(=O)COC(=O)C(Cc1ccccc1)NC(=O)c1ccco1 (stereo not drawn)	4.33e-08	0.1%	6.0%	i	i
O=C(c1ccco1)N1CCN(S(=O)(=O)N2CCOCC2)CC1	3.07e-08	-2.0%	-1.2%	i	i
COc1ccc2c(c1)CCc1c(-c3noc4c3CCc3cc(OC)ccc3-4)noc1-2	1.72e-08	0.5%[11.5 µM]	2.3%[11.4 µM]	i	i
CC(=O)N1CCC2(CC1)C(C#N)=C(N)Oc1c2sc2nc(C)cc(C)c12	1.6e-09	0.0%	-12.6%	i	i
CCn1cc(C(=O)NCc2ccccn2)c(=O)c2cc(S(=O)(=O)N3CCCCC3)ccc21	3.64e-08	-1.1%	0.5%	u	i
O=C(CN(Cc1ccco1)C(=O)Cn1nnc(-c2ccc(F)cc2)n1)NC1CCCC1	5e-09	0.5%	8.7%	i	i
O=C(O)/C=C\C(=O)Nc1ccc2c(c1)-c1ccccc1C2	2.2e-09	1.1%[11.5 µM]	-2.4%[11.4 µM]	i	i

Only part of the results is shown, so the mix of outcomes need not match the whole.
